PrP 5UTR inh – inhibition of PrP 5' UTR reporter expression; cell-based PrP 5' UTR mRNA reporter, plate reader; inhibition, % (test concentration not listed); hit rate 0.35% among 340,000;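 active = every replicate at 50% or more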;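 also: 0 = median of the neutral control wells; tested in H4 reporter cells; numbers are from one replicate; inactives centre near -14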
BJeLR viability – kills HRASV12-expressing BJeLR cells. BJeLR (HRASV12) viability, CellTiter-Glo ATP luminescence, 48 h; reference of the scale not given here. inhibition, % (no concentration beside the values). hit rate 0.17% among 300,000. AID 1554;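 active = replicate mean above 50%; inconclusive = above 50% but judged a plate artefact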;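 also: 50 nL library stock added to about 25 µL; numbers are from one replicate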
Mtb hypoxia inh – inhibitors of hypoxia-regulated fluorescent reporter in Mycobacterium tuberculosis; fluorescence inhibition, % (test concentration not listed); M. tuberculosis hypoxia-regulated fluorescent reporter, fluorescence; hit rate 0.1% among 300,000;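 active = 35 to 45% if threefold the growth effect, above 45% if 1.5-fold the growth effect; inactive = the rest, general growth blockers included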;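 also: wells of about 50 µL received 100 nL stock; 0% = vehicle wells and 100% = reference inhibitor wells; whole bacteria with a GFP reporter of the hypoxia response; strong numbers were not always called active; many hits fall short of the cut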
Sa ugtP lethal – compounds lethal to S. aureus RN4220 ugtP deletion mutant; hit rate 0.54% among 330,000; OD600 growth, 16 h; some inactives read as strong as hits; growth inhibition, % (concentration not given with the values);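 active = z-score under -3 and OD600 up to 0.15 on both plates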;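 also: plate controls were untreated wells for no effect and antibiotic for full effect; wells of about 80 µL received 100 nL stock; the first replicate is given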
RN4220 kill – S. aureus RN4220 growth inhibition; OD600, 16 h; inhibition, % (test concentration not listed); hit rate 0.33% among 330,000; AID 1259311;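 active = z-score of -3 or lower and OD600 up to 0.18 on both plates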;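 also: plate controls were untreated cells for no effect and reference antibiotic for full effect; stock transfer was 100 nL into about 80 µL; one replicate is shown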
Autofluor counter – counter-screen for toxin protease inhibitors: compound fluorescence; compound autofluorescence counterscreen, microsphere flow cytometry; active compounds read high; fluorescence intensity (concentration not given with the values); hit rate 3.1% among 360,000; AID 624483;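 active = at least 3 SD above the mean of all compounds, about 16000 in these data; inconclusive = too few beads counted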;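 also: 100 nL of 1 mM stock went into each well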
Mtb hypoxia inh growth – further read-out of Mtb hypoxia inh, marked with its call; growth inhibition, %; measured here: M. tuberculosis growth (absorbance);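 0% = vehicle and 100% = reference antibiotic; read after six days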
Active calls of the source: *; ? = inconclusive; / = no result given. Rows were taken by chance. Share with any hit: about 4.1%.

SMILES	PrP 5UTR inh	BJeLR viability	Mtb hypoxia inh	Mtb hypoxia inh growth	Sa ugtP lethal	RN4220 kill	Autofluor counter
CC(=O)Nc1ccc(S(=O)(=O)Nn2cnnc2)cc1	-22.1	2.6	-0.4	-4.4	0.3	4.5	4492
Cc1cc(=O)[nH]c(NN=Cc2ccc(OC(=O)c3cccnc3)cc2)n1	/	/	4.1	-0.3	-0.5	2.7	/
Cc1ccc(-c2nnc(N3CCN(C(=O)COc4ccccc4)CC3)c3ccccc23)cc1	-9.0	-5.0	-6.0	-4.5	-7.0	3.2	16269*
CCCC(C(=O)c1ccccc1)n1cncn1 (stereo unspecified)	-15.1	-7.5	/	/	8.9	2.3	4621
CN(CC(=O)Nc1cccc(F)c1)C(=O)c1ccc(COc2ccccc2)o1	-1.9	14.8	/	/	/	/	?
O=C(CN(c1ccccc1)S(=O)(=O)c1ccccc1[N+](=O)[O-])NN=C1CCCCCCC1	-33.5	0.9	3.8	3.2	-13.9	8.9	10188
Cn1c(SCc2ccc(C#N)cc2Cl)nc2ccccc21	-105.8	5.5	10.0	9.3	8.3	4.6	13120
CCCN1C(=O)c2ccc(C(=O)Nc3ccc4c(c3)OCO4)cc2C1=O	-21.7	-2.8	3.4	3.4	1.4	3.2	6114
Cc1ccc(SC2=C(Sc3ccc(C)cc3)C(=O)c3ccccc3C2=O)cc1	-13.1	10.2	2.6	-2.5	51.8	6.5	3959
Cn1c(N)c(C#N)c2c(c1=S)COC(C)(C)C2	-3.3	-5.6	-0.9	5.7	-2.8	-6.9	3178
CCOc1cc2c(cc1OCC)C(c1ccc(OC)cc1)N(c1ccccc1)C(=O)C2 (stereo unspecified)	-13.1	-0.8	-2.8	4.3	-0.8	1.5	7148
O=C(COc1ccc(/C=N/NC(=O)c2ccccc2O)cc1)Nc1ccccc1	-12.3	-2.7	/	/	/	/	4280

Not a retest: entries from further up.
SMILES	PrP 5UTR inh	BJeLR viability	Mtb hypoxia inh	Mtb hypoxia inh growth	Sa ugtP lethal	RN4220 kill	Autofluor counter
CC(=O)Nc1ccc(S(=O)(=O)Nn2cnnc2)cc1	-22.1	2.6	-0.4	-4.4	0.3	4.5	4492
Cc1cc(=O)[nH]c(NN=Cc2ccc(OC(=O)c3cccnc3)cc2)n1	/	/	4.1	-0.3	-0.5	2.7	/

Later entries.
SMILES	PrP 5UTR inh	BJeLR viability	Mtb hypoxia inh	Mtb hypoxia inh growth	Sa ugtP lethal	RN4220 kill	Autofluor counter
Cc1cc(C(=O)NN=Cc2ccc(Cl)c([N+](=O)[O-])c2)c(C)n1-c1ccc(F)cc1	/	/	-15.5	9.6	-4.4	2.4	/
C#C[C@]1(OC(C)=O)CCC2C3CCC4=CC(=O)CC[C@@H]4C3CC[C@@]21C (stereo partly specified)	-12.1	-11.1	/	/	/	/	5747
O=C(COC(=O)c1cccc(Cl)c1)Nc1cc(S(=O)(=O)N2CCOCC2)ccc1N1CCOCC1	-14.1	/	-7.6	0.2	-1.0	0.2	3085
COC(=O)c1ccc(-c2ccc(C=NNC(=O)CC3(C)OCCCO3)o2)cc1	/	/	4.5	1.5	-1.2	5.9	/
CNC(=S)Nc1ccc(Br)cc1	-18.9	11.5	12.8	0.0	3.5	1.5	2094
Cc1occc1C(=O)NNC(=O)COc1ccc(Br)cc1Br	-26.5	4.8	1.3	1.4	-3.6	3.1	2560
CCn1c(=NC(=O)CSCC(=O)Nc2nccs2)sc2ccccc21	-6.8	0.4	/	/	9.0	4.9	2393
Cc1cc(C)n(N=Cc2cc([N+](=O)[O-])ccc2O)c(=O)c1	/	/	-2.2	-9.4	76.2	88.9*	/
CC(=O)Nc1ccc(NC(=O)COC(=O)c2ccc(S(=O)(=O)NCc3ccco3)cc2)cc1	-3.4	/	3.6	2.4	5.4	1.6	3599
COc1cc(NC(=O)CSCC(=O)N(C)C2CCCCC2)cc(OC)c1	-3.4	/	-5.6	13.2	-2.6	-1.3	6045
CC1CCN(CCCCOc2ccc(Br)cc2)CC1	1.9	7.4	/	/	1.6	2.4	2036
Nc1nc(COc2ccccc2C=O)nc(Nc2ccccc2)n1	-40.3	0.0	-10.0	3.5	1.2	3.8	5274
O=C(Cn1c2c(c(-c3ccccc3Cl)cc1=O)CCC2)NCC1CCCO1 (stereo unspecified)	-17.5	-3.8	11.4	10.7	3.3	2.9	5160
CC1CC(C)CN(CCOc2ccc(Cl)cc2Cl)C1 (stereo unspecified)	5.1	6.2	-19.9	-5.8	-6.2	0.4	4419
CN(C(=O)c1ccco1)c1nnc(-c2ccc(F)cc2)s1	-66.9	-2.8	-2.2	-0.8	-10.5	2.3	4377
Cc1ccc(S(=O)(=O)c2c(C)nn(C(C)(C)C)c2OC(=O)C2CCCC2)cc1	-17.2	-10.1	/	/	-0.3	3.3	4875
COc1ccc(-c2ccc3c(c2)S(=O)(=O)c2cccc(C(=O)NCCOc4ccccc4)c2C3=O)cc1OC	-3.1	/	-3.7	-0.5	10.1	18.9	3819
COc1nc(Oc2ccc(=O)[nH]n2)nc(N2CCOCC2)n1	-8.3	-5.4	3.4	3.7	4.5	-0.6	?
Cc1ccccc1-n1c(=O)cc(N2CCN(Cc3ccccc3)CC2)[nH]c1=O	-19.0	1.9	-3.1	4.7	6.6	6.3	5629
CCC(=O)NC(=S)Nc1ccc(Cl)cn1	-23.8	2.2	/	/	-3.2	1.0	2499
N#Cc1cccc(NC(=O)CCNS(=O)(=O)c2ccc3[nH]c(=O)oc3c2)c1	1.8	0.1	-5.2	-6.4	-3.9	-2.3	4186
COc1ccc(-n2nnnc2SCC#CCO)cc1	-15.2	3.7	/	/	7.3	6.3	15380
CCc1ccc(NC(=S)NC(=O)c2c(-c3ccccc3Cl)noc2C)cc1	-6.2	10.5	6.6	-4.5	69.1	1.8	4431
CCOC(=O)C1CCCN(c2c(NCC3CCCO3)c(=O)c2=O)C1 (stereo unspecified)	-22.8	-1.7	10.8	6.6	6.5	3.0	4160
O=C(Nc1ccccc1)N1CCCc2ccccc21	-14.0	5.6	12.7	3.7	-3.0	10.0	2900
COc1ccc(-c2nncnn2)cc1	/	-0.3	/	/	36.1	46.8	/
C[n+]1ccccc1C1CCCCC1=NNc1ccc([N+](=O)[O-])cc1[N+](=O)[O-] (stereo unspecified)	/	/	5.6	-4.9	0.9	2.0	/
O=C(O)C1CCC(CNS(=O)(=O)c2ccc(Cl)cc2)CC1 (stereo unspecified)	-1.4	1.8	-4.3	-5.8	3.3	2.1	3649
Cc1c(Br)cnn1C(C)C(=O)N1CCN(c2ccc(F)cc2)CC1 (stereo unspecified)	-5.8	/	-16.1	-9.6	0.6	2.3	2519
CSc1ccccc1NC(=O)CSCc1ccc(C)cc1	-22.1	7.9	-1.8	1.0	-1.5	-8.7	3861
COc1cccc(Nc2nc(N)c([N+](=O)[O-])c(NCc3ccco3)n2)c1	/	-4.6	11.1	12.1	-14.6	2.9	5279
COc1cccc(C(=O)N/N=c2\oc3c(OC)cccc3cc2C(=O)NCc2ccccc2)c1	-22.6	9.2	/	/	/	/	2519
C=CCN(C(=O)c1csnn1)C(C(=O)NCc1ccccc1)c1cccs1 (stereo unspecified)	-13.4	-3.2	5.2	7.1	14.7	0.6	3791
CCOc1ccccc1-c1cc(C(=O)NN=Cc2cccnc2)c2ccccc2n1	/	/	13.8	3.1	2.1	3.6	/
O=C(c1coc(=O)c(Br)c1)N1CCC(C(O)(c2ccccc2)c2ccccc2)CC1	4.4	-13.5	12.2	6.0	0.8	2.2	5436
O=C(NCc1ccco1)c1ccc(Cn2c(=O)c3ccccc3n(Cc3ccc(Cl)cc3)c2=O)cc1	-12.3	-10.2	17.3	7.8	16.7	-3.2	9030
Cc1ccc(C(=O)N2CCCCCC2)cc1Br	-4.1	-2.5	13.8	21.2	-2.2	4.9	4055
Cc1ccc(N(CC(=O)Nc2cccc(N(C)S(C)(=O)=O)c2)S(C)(=O)=O)cc1	6.9	6.2	-4.8	-5.8	1.0	1.9	24480*
Cc1ccc(C(C(=O)NC(C)(C)C)N(C(=O)c2csnn2)C2CC2)cc1 (stereo unspecified)	-2.0	-14.1	8.7	4.8	-0.5	3.6	9158
CC(C)(C)OC(=O)NCCc1n[nH]c(=S)o1	/	-9.9	9.9	13.9	-0.5	1.2	4286
O=c1c2ccccc2c(/C=N/n2cnnc2)c(O)n1-c1ccccc1F	-32.0	9.8	-5.0	-0.1	8.7	3.4	10137
COc1ccc(-c2nc(NC(=O)CCNC(=O)c3ccco3)sc2C)cc1	-19.7	2.1	13.8	7.9	1.6	-4.0	4246
O=C(O)COCC(=O)Nc1ccc(Oc2ncnc3cc(Cl)ccc23)nc1	/	3.7	6.4	-7.4	3.7	1.1	4028
CN(C)S(=O)(=O)N1CCN(c2ccccc2)CC1	-9.3	1.8	8.7	-1.1	7.3	4.8	8151
CNc1cc(Cl)nc(SC)n1	-17.4	-7.8	/	/	-12.8	-1.1	4420
CCCCCC(=O)N/N=C/c1ccccc1[N+](=O)[O-]	-10.7	-2.0	/	/	/	/	4069
Cc1cccc(C(=O)NN=Cc2ccccn2)c1	/	/	0.1	8.7	1.5	9.3	/
CN(C)CCN(C(=O)c1ccc(C(=O)c2ccccc2)cc1)c1nc2cc3c(cc2s1)OCO3	-3.1	-2.8	5.4	1.5	5.7	0.9	?
Cc1cc(=O)c2cc(NC(=O)c3ccccc3Cl)ccc2[nH]1	-17.7	-6.2	16.0	11.3	13.3	0.3	4010
Cc1ccc(-c2cc3c(N=O)c4ccccc4c-3n[nH]2)cc1	78.8*	69.8*	12.2	6.9	-2.5	4.6	2452
O=c1c2ccccc2n(Cc2ccccc2F)c(=O)n1Cc1ccccc1F	-23.4	-0.4	7.6	5.8	32.6	0.2	5762
CC(C)(C)NC(=O)C=NO	/	/	14.1	6.1	7.5	6.3	/
CC(=O)Nc1ccc(NC(=O)CC2CCCC2)cc1	-21.7	13.1	6.7	5.8	6.0	0.0	3557
O=C(CSc1nncn1-c1ccccn1)Nc1ccccc1Cl	-8.6	-3.7	6.4	3.4	3.7	2.7	3721
CCCc1cc(=O)[nH]c(SCC(=O)NC(=O)NC2CCCC2)n1	-15.2	/	9.0	2.8	-3.0	3.2	3373
Cc1ccc(OCC(=O)Nc2ccc(-c3nc4ncccc4o3)cc2)c(C)c1	-26.2	-6.9	/	/	2.8	15.5	2678
CC(=N/N=C1/NC(=O)CC(C(=O)O)S1)c1ccc(F)cc1 (stereo unspecified)	/	/	14.3	2.7	11.6	3.9	/
CCOCC(=O)N1CCCC(C(=O)OCC)C1 (stereo unspecified)	-14.7	-1.6	/	/	11.2	0.1	5002
CCOc1ccc(CCNC(=O)c2ccc(C)c(S(=O)(=O)N3CCOCC3)c2)cc1OCC	-27.2	/	15.1	10.9	4.1	-0.9	2883
CS(=O)(=O)N1CCN(c2ccc(C(=O)NC34CC5CC(CC(C5)C3)C4)cc2[N+](=O)[O-])CC1	-17.3	-0.2	-0.8	-2.5	0.0	2.6	2613
Other entries:
SMILES	PrP 5UTR inh	BJeLR viability	Mtb hypoxia inh	Mtb hypoxia inh growth	Sa ugtP lethal	RN4220 kill	Autofluor counter
CCOC(=O)c1c(C)c(C(=O)NCCOC)c(C)n1CC	-24.1	2.9	7.9	5.9	3.5	1.9	23521*
COc1cc2nc(C(C)(C)C)oc(=O)c2cc1OC	-7.0	3.6	-3.5	5.4	3.3	4.7	6019
Cc1ccc2cc(-c3noc(C(C)(C)C)n3)c(=O)[nH]c2c1	-23.8	0.0	1.3	8.6	0.1	8.8	22460*
Cc1ccc(CN2CC(C(=O)N(CC(C)C)c3c(N)n(Cc4ccccc4)c(=O)[nH]c3=O)CC2=O)cc1 (stereo unspecified)	-19.4	/	13.0	3.4	6.8	3.6	3547
CCCC(=O)Nc1nc(-c2ccccc2)c(CC)s1	-49.9	-1.1	6.7	-3.4	-8.0	8.1	2157
CC1=C(C(=O)OC(C)(C)C)C(c2ccc(Br)cc2)NC(=O)N1CCCC(=O)O (stereo unspecified)	/	-4.1	16.9	6.3	1.5	6.6	/
CSCCCN1CCCC(CO)(Cc2ccc(F)cc2)C1 (stereo unspecified)	7.6	-10.8	4.1	2.5	0.6	0.7	/

High-throughput results from PubChem BioAssay.
